Screening data as filed in PubChem.
CSC inhib = cancer stem cell viability inhibitors, primary screen, luminescence. inhibition, % at 7.5 µM. actives 1.1% (n = 300,000). cancer stem cell-like cells viability;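 active = mean at 75% or more and at least half the replicates too; inconclusive = mean and replicates disagree; tested in HMLE shEcad cells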;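 also: 0% = median of negative and 100% = median of positive control wells; the first replicate is given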
Env fusion inh = inhibitors of HIV-1 Env-driven cell-cell fusion, primary screen, HeLa-JRFL effector, CEM21 target cells, luciferase. actives 1.1% (n = 360,000). AID 651610, 2012. inhibition, % at 12.3 µM;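 active = mean replicate inhibition score of at least 50 and every replicate individually at or above 50; inconclusive = only one of the two criteria met; inactive = mean below 50 and not all replicates reaching 50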;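 also: 0% = plate neutral controls and 100% = maraviroc near 300 nM; one replicate is shown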
Yeast UUG start = modulators of yeast start codon fidelity, primary screen, whole organism, S. cerevisiae, single point, plate reader. actives 0.13% (n = 350,000). AID 602363, 2012. activity score, % at 18.7 µM. S. cerevisiae UUG-firefly luciferase reporter, luminescence/redox ratio;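 active = replicate mean at a twofold rise or more, about +100% in these data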;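 also: firefly luciferase made from a UUG start codon reports start codon fidelity; reporter light over untreated wells divided by growth signal over untreated wells; some hits fall short of that in this replicate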
eIF4H FP inh = human eIF4H binding inhibitors, primary screen, translation initiation inhibitor project, biochemical, uHTS, fluorescence polarization. eIF4H fluorescence polarization binding assay. inhibition, % at 35 µM. AID 2012, 2009. Eukaryotic translation initiation factor 4H (Homo sapiens), Q15056. actives 0.94% (n = 290,000);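 active = 50% or more with normal probe brightness, or confirmed in later tests; inconclusive = above 50% with abnormal brightness, or retests that disagree; inactive = below 50% or failed in later tests; about a fifth of its hits are not listed in these tables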;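 also: calls also rest on retests at 20 µM and on dose response follow-up; 0% = protein and probe with vehicle and 100% = probe without protein; strong numbers were not always called active; many hits fall short of the cut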
MT1-MMP act inh = blockers of MT1-MMP proenzyme processing, primary screen, HT1080 RFP-PRO-GFP cells, GFP/RFP fluorescence. GFP/RFP ratio fluorescence, overnight; percent of plate control window, DMSO zero. GFP/RFP ratio change, % at 20 µM. actives 0.061% (n = 360,000). AID 651647, 2012;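 active = GFP/RFP ratio change of at least 30% with cell ATP level not reduced by more than half and red fluorescence within 50% of control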; also: strong numbers were not always called active
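Compound: 20 µM single dose, 1% DMSO / System: HT1080 RFP-PRO-GFP cells / Controls: DMSO and RFP-L50D-GFP cell wells / Read-out basis: GFP/RFP fluorescence ratio / Schedule: overnight compound exposure at 37 °C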
Rce1 inhib = yeast Rce1p protease inhibitors, primary screen, biochemical, fluorescence, cell-free homogeneous; actives 0.27% (n = 290,000); calls only; AID 2563, 2010; yeast membranes, quenched prenylated peptide cleavage fluorescence; CAAX prenyl protease 2 (Saccharomyces cerevisiae (strain ATCC 204508 / S288c)), Q03530;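 active = fall in fluorescence gain of 50% or more versus controls, with final raw signal at or below 3038400; inconclusive = same 50% fall but final raw signal above 3038400; inactive = fall in fluorescence gain under 50%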;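 also: plate controls were neutral control wells for no effect and wells lacking membranes for full effect; tested at 10 µM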
Target sequence (Q03530 whole entry, looked up): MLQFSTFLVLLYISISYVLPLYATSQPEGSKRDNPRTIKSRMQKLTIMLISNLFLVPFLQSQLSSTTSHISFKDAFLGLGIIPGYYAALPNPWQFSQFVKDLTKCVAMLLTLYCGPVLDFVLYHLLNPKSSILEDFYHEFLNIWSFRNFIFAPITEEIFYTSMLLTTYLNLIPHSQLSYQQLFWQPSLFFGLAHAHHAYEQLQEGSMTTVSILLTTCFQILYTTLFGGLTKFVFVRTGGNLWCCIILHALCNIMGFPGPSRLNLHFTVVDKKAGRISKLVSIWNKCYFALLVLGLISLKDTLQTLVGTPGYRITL
PABP FP inh = PABP poly(A) RNA binding inhibitors, primary screen, biochemical, fluorescence polarization, uHTS; inhibition, % at 35 µM; Polyadenylate-binding protein 1 (Homo sapiens), P11940; actives 1% (n = 290,000); AID 2014, 2009;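 active = 50% or more with normal probe brightness, or confirmed in later tests; inconclusive = above 50% with abnormal brightness, or retests that disagree; inactive = below 50% or failed in later tests; about a fifth of its hits are not listed in these tables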;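 also: calls also rest on retests at 20 µM and on dose response follow-up; controls were probe without protein and protein plus probe with vehicle; some compounds called inactive have numbers as strong as hits; many hits fall short of the cut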
eIF4H FP inh retest = second read-out of eIF4H FP inh, no call of its own (marks repeat the call); inhibition, %; compound at 20 µM; confirmation average;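 mean of two retest wells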
PABP FP inh retest = recorded beside PABP FP inh, whose call it bears; inhibition, %; compound at 20 µM; confirmation repeats;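 mean of two retest wells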
MT1-MMP act inh RFP = also measured in MT1-MMP act inh; calls as there; RFP signal change, %; measured here: RFP expression control read;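 0 = vehicle wells; hits needed this value within 50% of zero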
Numbers without * were called inactive; i = inactive; ? = inconclusive; / = not tested or not shown. This is a subset; rates above refer to the full screens.

SMILES | CSC inhib | Env fusion inh | Yeast UUG start | eIF4H FP inh | MT1-MMP act inh | MT1-MMP act inh RFP | Rce1 inhib | PABP FP inh | others
COc1ccc(CCN(C)C2CCCN(C(=O)c3sccc3C)C2)cc1OC (stereo unspecified) | -5 | -17 | -21 | -3 | -2 | 5 | i | -9
CN(C)CCNC(=S)Nc1ccccc1Cl | -7 | / | -12 | -1 | 3 | 4 | i | 1
O=C(c1ccc2c3c(cccc13)CC2)C1CCCN(Cc2ccc(OCCO)cc2)C1 (stereo unspecified) | 32 | -27 | / | -16 | -5 | -6 | i | 0
CCOC(=O)C1=C(c2ccc(OC)cc2)C(=O)c2ccccc2C1=O | 36 | 74* | / | -8 | / | / | i | 3
CCCCN(c1nc2ccccc2nc1Cl)S(=O)(=O)c1ccc(C)cc1 | 35 | 35 | -10 | 4 | -7 | -16 | i | -6
Cc1c(C(=O)N2CCC(C)CC2)sc2ncn(CC(=O)N3CCC(C)CC3)c(=O)c12 | -4 | -7 | 31 | -7 | -1 | 0 | i | -7
Cc1ccc(S(=O)(=O)NCCSc2nnnn2-c2cc(C)ccc2C)cc1 | -17 | -37 | 1 | -6 | -10 | -15 | i | -2
C/C(=N\NC(=O)c1cccnc1)c1ccc(OC2OCCOC2Oc2ccc(/C(C)=N/NC(=O)c3cccnc3)cc2)cc1 (stereo unspecified) | -4 | 3 | -17 | -19 | 2 | 3 | i | 76 | eIF4H FP inh retest=29;PABP FP inh retest=40
Cc1cccc(OCCNC(=O)c2ccc(Cl)c(S(=O)(=O)NCc3cccnc3)c2)c1 | 45 | / | -20 | / | 8 | -7 | / | /
CCN(CC)CCNC(=O)c1ccc(NC(=O)c2ccccc2-c2ccc(C(F)(F)F)cc2)cc1 | 14 | 10 | 17 | 3 | 0 | 2 | i | -7
NC(=O)c1ncn([C@@H]2O[C@H](CNS(=O)(=O)c3cc4ccccc4s3)[C@@H](O)[C@H]2O)n1 | / | 30 | -12 | / | 4 | 8 | / | /
CC(C)c1ccc(NC2CCCN(C(=O)c3ccncc3)C2)cc1 (stereo unspecified) | 37 | -7 | -6 | -8 | -3 | -6 | i | -5
Cc1noc(C)c1C(=O)Nc1nnc(CC(C)C)s1 | -10 | 6 | -13 | -5 | 2 | 5 | i | -10
CCCCn1c(N)c(N(CCOC)C(=O)C2CCN(c3ncnc4sc(C)c(C)c34)CC2)c(=O)[nH]c1=O | -10 | -12 | 17 | / | -4 | 0 | i | /
O=C(COc1ccc(-c2ccccc2)cc1)N/N=C/c1cc(O)ccc1Br | 89* | / | / | -11 | 14 | -10 | i | -5
CCOC(=O)C1=C(C)OC(N)=C(C#N)C1c1cc2cc(C)ccc2nc1N1CCCCC1 (stereo unspecified) | 7 | -50 | -14 | 35 | -26 | -3 | i | 2
O=C(CSc1nnnn1-c1ccc(O)cc1)N1N=C(c2ccc3ccccc3c2)CC1c1ccccc1 (stereo unspecified) | 29 | / | / | -8 | / | / | i | -10
COc1cccc(NC(=S)NN2C(C)CCCC2C)c1 (stereo unspecified) | -7 | / | -21 | 0 | -6 | -11 | i | 5
Cc1ccc(-c2nc(=S)c3c(n2Cc2ccco2)CC(C)(C)OC3)cc1 | -9 | / | -10 | 1 | 2 | 0 | i | 8
C/C(=N/NC(=O)c1ccc(Br)o1)c1cccs1 | 4 | -51 | -15 | -7 | -2 | 2 | i | -3
CC/C(=N\NC(=O)c1cc(C)oc1C)c1ccc(OC(F)F)cc1 | / | 2 | 0 | / | 7 | 5 | / | /
Cc1ccc(OCCNC(=O)c2ccc3ccccc3n2)cc1 | / | 5 | 1 | 12 | -1 | 1 | i | 5
CCN(CC)C(=O)c1c(-c2ccccc2)oc2ccc(O)cc12 | -1 | 0 | -14 | -4 | -5 | -12 | i | -2
Cc1ccc(C)c(NC(=S)NNC(=O)c2ccco2)c1 | -9 | -33 | -13 | 3 | 2 | 1 | i | 0
COC(=O)c1sccc1NC(=S)N1CCN(c2cccc(C)c2C)CC1 | 59 | -28 | / | -6 | -7 | -3 | i | 9
SMILES | CSC inhib | Env fusion inh | Yeast UUG start | eIF4H FP inh | MT1-MMP act inh | MT1-MMP act inh RFP | Rce1 inhib | PABP FP inh | others
O=C(OCCC1Oc2cccnc2NC1=O)c1ccc(F)cc1 (stereo unspecified) | 34 | 20 | / | -7 | 1 | 2 | i | -12
CC(C)OC(=O)CC(=O)CSc1nc2c(c(-c3cccs3)c1C#N)CCC2 | 13 | 1 | / | 24 | -5 | 1 | i | 32
CCOC(=O)c1c(NC(=O)C(C)NCc2ccco2)sc2c1CCC(C)C2 (stereo unspecified) | 46 | ? | 20 | 2 | 0 | -22 | i | 12
ONC(=Nc1ccccc1)C(=Nc1ccccc1)NO | 5 | / | -16 | 4 | 1 | 5 | i | 2
N#Cc1ccccc1NC(=O)c1cc(=O)c2ccccc2o1 | 2 | 6 | / | 2 | -4 | -6 | i | -11
COc1cc(OCc2ccccc2)c(CC(=O)O)c([N+](=O)[O-])c1 | / | -4 | -8 | / | 2 | 0 | / | /
CCn1cc(C(=O)NCCCOC)c(=O)c2cc(S(=O)(=O)N3CCCC3)ccc21 | -8 | -52 | 3 | -6 | -3 | 5 | i | 14
CCOC(=O)c1ccc(NNC(=O)CC)c([N+](=O)[O-])c1 | -6 | 3 | / | -11 | -5 | -1 | i | -7
CC(=O)Nc1cccc(NC(=O)CSc2nnc(Cc3cccn3C)n2-c2ccc(C)cc2)c1 | -13 | -109 | -5 | -9 | 1 | 1 | i | 3
CC(C)(C)c1ccc(SCCc2ccccn2)cc1 | 0 | -73 | / | -5 | -1 | 1 | i | -1
Cc1ccc(N2C(=O)CC(NCc3ccc4c(c3)OCO4)C2=O)cc1Cl (stereo unspecified) | 0 | / | 4 | -11 | -1 | -1 | i | 2
O=[N+]([O-])c1ccc(-c2nc(-c3cccs3)c(-c3cccs3)[nH]2)cc1 | -4 | / | -15 | -3 | -113 | -28 | i | -11
Cc1cccc(OCC(=O)Nc2ccc(CN3CCOCC3)cc2)c1C | 10 | -26 | 4 | -18 | 0 | -1 | i | 10
COc1ccc([C@H]2CC(=O)C=C(c3cccc(C(F)(F)F)c3)C2)cc1 | 9 | -13 | -12 | / | 0 | -2 | / | /
O=C(c1cccc(Cl)c1)N1CCC2CC1c1cc(-c3ccccc3)ccc12 (stereo unspecified) | / | -6 | 5 | / | 3 | 1 | / | /
CCOC(=O)c1cccc(S(=O)(=O)N(CCO)Cc2cc3cc(OC)ccc3[nH]c2=O)c1 | / | / | 7 | 13 | 10 | 1 | i | 16
COc1cc(Cn2c3ccc(NC(=O)CCc4ccccc4)cc3c(=O)n2C)ccc1F | / | -129 | -26 | / | 5 | -1 | / | /
CCOC(=O)C1=C(N)N(c2ccccc2)C2=C(C(=O)CCC2)C1c1cccnc1 (stereo unspecified) | -9 | 10 | / | -2 | 0 | 2 | i | 7
COC(=O)[C@H](CC(C)C)NC(=O)Cn1cnc2c(OCc3ccccc3)ncnc21 | / | -5 | -5 | / | 4 | 8 | / | /
COCCNC(=S)Nc1ccc2[nH]c(=O)[nH]c2c1 | -2 | -66 | / | -1 | 6 | 2 | i | 8
Cc1ccc(C)c(CSc2nnc(C)c(=O)n2N)c1 | 2 | 9 | / | -3 | -3 | -2 | i | -11
C=CCC1(CC=C)CCCN1C(=O)CC1C(=O)NCCN1Cc1ccc(OC)c(OC)c1 (stereo unspecified) | -5 | -18 | / | 0 | -4 | 2 | i | 2
COc1cc(F)ccc1CN1CCC(n2nccc2NC(=O)C2CCOC2)CC1 (stereo unspecified) | -2 | 5 | -12 | -12 | -3 | 0 | i | -9
Cc1c(NP(=O)(Oc2ccccc2F)Oc2ccccc2F)c(=O)n(-c2ccccc2)n1C | -5 | 8 | / | -3 | 0 | 1 | i | 3
CSc1nc2c(c(=O)[nH]1)C(c1cccc(Cl)c1Cl)CC(=O)N2 (stereo unspecified) | 2 | -3 | / | -8 | 2 | 3 | i | 2

Next section, starting with the last 2 of the part before.
SMILES | CSC inhib | Env fusion inh | Yeast UUG start | eIF4H FP inh | MT1-MMP act inh | MT1-MMP act inh RFP | Rce1 inhib | PABP FP inh | others
Cc1c(NP(=O)(Oc2ccccc2F)Oc2ccccc2F)c(=O)n(-c2ccccc2)n1C | -5 | 8 | / | -3 | 0 | 1 | i | 3
CSc1nc2c(c(=O)[nH]1)C(c1cccc(Cl)c1Cl)CC(=O)N2 (stereo unspecified) | 2 | -3 | / | -8 | 2 | 3 | i | 2
CCOc1ccc(OCC)c(S(=O)(=O)n2cnc(C)c2)c1 | -8 | -3 | -24 | 4 | -4 | -5 | i | 3
COc1ccccc1OCCNC(=O)c1cc(=O)[nH]c2ccccc12 | 7 | -3 | / | 2 | 5 | 4 | i | -4
CCCCSc1nc2c(cc1C#N)CCC2 | 8 | 9 | -17 | -1 | -5 | 2 | i | -11
Nn1c(-c2ccccn2)nnc1-c1ccccn1 | 1 | -120 | -22 | -1 | 3 | 4 | i | 8
O=c1c2ccccc2nc(SCc2nnc(-c3ccccc3)o2)n1-c1ccc(F)cc1F | -5 | / | -1 | -2 | -6 | 1 | i | -2
COc1ccc(N(/N=C2\Sc3ccccc3C2=O)C(C)=O)cc1 | / | -58 | -7 | -5 | 2 | 13 | / | 10
CCC(C)Nc1ccc(NC(C)CC)cc1 (stereo unspecified) | 82* | / | -6 | / | 24 | -2 | / | /
O=C(CCCOc1ccccc1)NNC(=O)c1ccc(Cl)cc1 | -7 | / | -7 | / | 7 | -4 | / | /
Cc1cc([N+](=O)[O-])nn1CCCC(=O)Nc1sc2c(c1C(N)=O)CCC(C)C2 (stereo unspecified) | -2 | / | / | 3 | 3 | 5 | i | 2
CCCCN(C)S(=O)(=O)c1cc2c(cc1Br)CCN2C(=O)C1CC1 | / | 17 | 1 | / | 2 | -6 | / | /

A draw from above in order of molecular weight, highest first.
SMILES | CSC inhib | Env fusion inh | Yeast UUG start | eIF4H FP inh | MT1-MMP act inh | MT1-MMP act inh RFP | Rce1 inhib | PABP FP inh | others
O=c1c2ccccc2nc(SCc2nnc(-c3ccccc3)o2)n1-c1ccc(F)cc1F | -5 | / | -1 | -2 | -6 | 1 | i | -2
O=C(CCCOc1ccccc1)NNC(=O)c1ccc(Cl)cc1 | -7 | / | -7 | / | 7 | -4 | / | /
COc1ccc(N(/N=C2\Sc3ccccc3C2=O)C(C)=O)cc1 | / | -58 | -7 | -5 | 2 | 13 | / | 10
CCOc1ccc(OCC)c(S(=O)(=O)n2cnc(C)c2)c1 | -8 | -3 | -24 | 4 | -4 | -5 | i | 3
Nn1c(-c2ccccn2)nnc1-c1ccccn1 | 1 | -120 | -22 | -1 | 3 | 4 | i | 8
